# VDR inhibitor = vitamin D3 receptor (human) inhibition. actives 0.93% (n = 400,000). P11473. VDR-SRC2-3 peptide fluorescence polarization, 2 h. AID 504847. Potency, µM, for the others: max response, negative = inhibition, most hits filed as inhibitors; active = well fitted inhibition curve with a large enough effect; also: series mostly up to about 120 µM
# Target sequence (P11473 whole entry, looked up): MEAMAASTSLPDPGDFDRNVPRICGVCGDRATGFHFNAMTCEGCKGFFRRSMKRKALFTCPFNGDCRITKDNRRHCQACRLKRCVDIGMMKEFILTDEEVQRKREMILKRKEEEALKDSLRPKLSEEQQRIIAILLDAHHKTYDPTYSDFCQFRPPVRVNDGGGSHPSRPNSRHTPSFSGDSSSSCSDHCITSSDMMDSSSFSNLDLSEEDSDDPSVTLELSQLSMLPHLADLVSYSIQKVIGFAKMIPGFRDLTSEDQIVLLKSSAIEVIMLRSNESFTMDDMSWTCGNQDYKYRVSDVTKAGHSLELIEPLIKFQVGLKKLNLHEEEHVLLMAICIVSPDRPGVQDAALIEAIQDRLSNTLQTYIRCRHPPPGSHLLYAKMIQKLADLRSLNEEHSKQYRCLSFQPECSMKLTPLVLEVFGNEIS
#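 After 23 nl compound addition and a short centrifugation, plates sat for 2 hours at ambient temperature; polarization of fluorescence then indicated loss of VDR binding to peptide SRC2-3.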
# The depositor's hits bear a star; [ ] = remark or other dose. % is scaled to controls: 0 for no effect and ±100 for the full control effect; potency is read from the fitted curve at half-maximal effect. Not all compounds are listed; count on the stated rates, not on these rows.
SMILES,VDR inhibitor
COc1ccc(Cn2nnnc2C(c2cc(OC)ccc2OC)N2CCC(C(N)=O)CC2)cc1 (stereo not given),-1%
CCOc1ccc(/C=N/NC(=O)C(C)Sc2ccccn2)cc1OCC (stereo not given),4%
CCOC(=O)c1cnc(SCC(=O)Nc2ccc(NC(C)=O)c(OC)c2)nc1N,-5%
CCOC(=O)C12CNC(=O)C(C(=O)OCC)(CNC1=O)C2,9%
Cc1ccc2nc(Cl)c(C3CC(c4ccco4)=NN3C(=O)CCCC(=O)O)cc2c1 (stereo not given),24%
COc1ccc(C(=O)Nc2cccc(OCc3cc(=O)n4c5c(sc4n3)CCCC5)c2)cc1,4%
CCN(C(=O)CSc1n[nH]c(N)n1)c1cccc2ccccc12,-3%
CS(=O)(=O)c1ccc(C(=O)NNC(=O)c2ccccc2-n2cccc2)cc1,-19%
CCN(CCN1CCCC1)C(=O)C1CCC(=O)N(CCCN2CCOCC2)C1 (stereo not given),6%
Cc1[nH]n(C(N)=S)c(=O)c1N=Nc1ccccc1C(F)(F)F,-8%
CC(C#N)Sc1ccc(S(=O)(=O)N2CCCCC2)cn1 (stereo not given),25%
COc1ccc2nc3cc(Cl)ccc3c(NCCCN3CCN(CCCNc4c5ccc(Cl)cc5nc5ccc(OC)cc45)CC3)c2c1,44%[activator]
COCCCNC(=O)c1oc2c(c1C)-c1nn(Cc3ccccc3Cl)cc1CC2,8%
CC(C)(C)c1ccc(C(=O)Nc2cc(-c3ccccc3)nn2-c2ccccc2)cc1,-5%
CC(NC(=O)COc1ccccc1)C1COc2ccccc2O1 (stereo not given),-4%

# Three entries from above, with tabs.
Molecule	VDR inhibitor
CCN(C(=O)CSc1n[nH]c(N)n1)c1cccc2ccccc12	-3%
CS(=O)(=O)c1ccc(C(=O)NNC(=O)c2ccccc2-n2cccc2)cc1	-19%
CCN(CCN1CCCC1)C(=O)C1CCC(=O)N(CCCN2CCOCC2)C1 (stereo not given)	6%

# Structural class, the entries above with an NH in an aromatic ring (2)
SMILES,VDR inhibitor
CCN(C(=O)CSc1n[nH]c(N)n1)c1cccc2ccccc12,-3%
Cc1[nH]n(C(N)=S)c(=O)c1N=Nc1ccccc1C(F)(F)F,-8%

# Quoted from the listing:
# Entry of COc1ccc(Cn2nnnc2C(c2cc(OC)ccc2OC)N2CCC(C(N)=O)CC2)cc1 (stereo not given) under VDR inhibitor: -1%
# Entry of CCN(CCN1CCCC1)C(=O)C1CCC(=O)N(CCCN2CCOCC2)C1 (stereo not given) under VDR inhibitor: 6%
# Entry of CCOc1ccc(/C=N/NC(=O)C(C)Sc2ccccn2)cc1OCC (stereo not given) under VDR inhibitor: 4%
# Entry of CC(C#N)Sc1ccc(S(=O)(=O)N2CCCCC2)cn1 (stereo not given) under VDR inhibitor: 25%
# Entry of CS(=O)(=O)c1ccc(C(=O)NNC(=O)c2ccccc2-n2cccc2)cc1 under VDR inhibitor: -19%
# Entry of CCOC(=O)C12CNC(=O)C(C(=O)OCC)(CNC1=O)C2 under VDR inhibitor: 9%

# More records:
SMILES,VDR inhibitor
COc1ccc(C(=O)Nc2ccccc2C(=O)N/N=C/c2ccc(O)c(OC)c2)cc1,12%
CC(C)OC(=O)C(C)Oc1ccc(C(=O)NCCc2ccccc2)cc1 (stereo not given),-1%
O=C(Nc1cccc(C(=O)OCc2cc(=O)n3c4c(sc3n2)CCCC4)c1)c1ccc(Cl)cc1,12%
Cc1ccc(-c2cc(C(=O)Nc3ccc(S(=O)(=O)Nc4ncccn4)cc3)c3ccccc3n2)cc1,-10%
COc1cccc(-c2nc(NC(C)(C)C)c3ccccc3n2)c1O,16%
Cc1cccc(NC2=C(Cl)C(=O)OC2OC(C)C)c1 (stereo not given),-15%
Cc1ccc(-c2csc(NCCn3c(-c4ccncc4)nc4ccccc43)n2)cc1,6%
CC(Nc1ccccc1N1CCCCC1)C(=O)N1CCc2ccccc21 (stereo not given),4%
CCn1cc(C(=O)NC2CC(C)(C)Cc3c2cnn3-c2cccc(F)c2)cn1 (stereo not given),3%
CC(C)C(Nc1ccc(S(=O)(=O)N2CCOCC2)cc1[N+](=O)[O-])C(=O)O (stereo not given),6%
C=CCC1NS(=O)(=O)O[C@H](CCCC)[C@@H]1O (stereo not given in full),-20%
CN(C(=O)CSc1ncnc2sccc12)c1c(N)n(Cc2ccccc2)c(=O)[nH]c1=O,5%
COc1ccccc1NC(=O)C(=O)/C=C(\O)c1ccccc1,4%
O=C(O)c1ccc(C2SCC(=O)N2Cc2ccccc2)cc1 (stereo not given),-2%
CCOC(=O)C1CCCN(C(=O)c2cc3cc(OC)c(OC)cc3[nH]2)C1 (stereo not given),-12%
Cc1c(Cl)cccc1NC(=O)CC(c1ccc(F)cc1)N1Cc2ccccc2C1=O (stereo not given),-2%
CCC(NC(=O)c1ccc(C#CC2(O)CCCCC2)cc1)C(=O)O (stereo not given),-20%
Cc1sc(NC(=O)c2ccccc2)c(C(c2ccc(Cl)cc2)N2CCN(CCO)CC2)c1C (stereo not given),-27%
CC(=O)Nc1ccc(S(=O)(=O)N2CCn3cccc3C2C)cc1 (stereo not given),-1%
Cc1cc(C(=O)N2CCN(c3ncccn3)CC2)cs1,3%
CCC(NS(=O)(=O)c1ccc2c(c1)NC(=O)C(C)C(=O)N2)c1cccs1 (stereo not given),4%
O=C(O)c1cc2cc(OCc3ccccc3)ccc2[nH]1,11%
Cc1cccc(C)c1NC(=O)c1cc2c(=O)c3ccccc3oc2nc1C(F)(F)F,-7%
CCOC(=O)c1cccc(NC(=O)c2ccc(N(C)C)cc2)c1,1%
COCc1nnc(SCC(=O)Nc2cccc(Cl)c2C)n1-c1ccccc1,1%
COc1cc(/C=C/C(=O)Nc2ccc(S(=O)(=O)Nc3ncccn3)cc2)ccc1OCC#N,-1%
Cc1nn(CC(=O)O)c(C)c1C,13%
O=C(Nc1ccc(O)cc1)C1CC=CCC1 (stereo not given),-3%
CCOC(=O)c1sc(NC(=O)c2ccc(OC)cc2)nc1C,19%
Cc1ccc(C(=O)Nc2ccc(S(=O)(=O)N3CCc4ccccc43)cc2)o1,15%

# In a second layout: 3 of the compounds above.
structure	VDR inhibitor
COCCCNC(=O)c1oc2c(c1C)-c1nn(Cc3ccccc3Cl)cc1CC2	8%
CC(C)(C)c1ccc(C(=O)Nc2cc(-c3ccccc3)nn2-c2ccccc2)cc1	-5%
CC(NC(=O)COc1ccccc1)C1COc2ccccc2O1 (stereo not given)	-4%

# Carrying on:
SMILES,VDR inhibitor
Cc1onc(-c2c(Cl)cccc2Cl)c1C(=O)NCCCN1CCOCC1,1%
COc1ccc(CNCCC2(Cc3ccccc3)CC(C)N(C)CC2C)cc1OC (stereo not given),14%
CCOc1ccccc1NC(=O)CSC1=Nc2ccccc2C2=NC(CC(=O)NC3CCCCC3)C(=O)N12 (stereo not given),-16%
C=CCSc1nnc(-c2cc3c(-c4ccccc4)nn(C)c3s2)n1C,12%
CCn1cc([N+](=O)[O-])c(C(=O)Nc2ccc3c(c2)OCCO3)n1,6%
O=C(NCCc1ccccc1)C(=O)NCC1OCCN1S(=O)(=O)c1ccc2c(c1)OCCO2 (stereo not given),-5%
CC(CC(=O)Nc1ccc(-c2ccno2)cc1)n1cccn1 (stereo not given),-13%
Nc1nc2c(nc(SCc3ccccc3Br)n2[C@@H]2O[C@H](CO)[C@@H](O)[C@H]2O)c(=O)[nH]1,13%
COc1ccc(Cl)cc1C(=O)NCCS(=O)(=O)N1CCN(c2ccccc2OC)CC1,10%
COC(=O)C1=C(C)N(Cc2ccccc2)C(=S)N[C@H]1c1cccc(C(F)(F)F)c1,4%
O=C(CCN1C(=O)C2CCCCC2C1=O)N1CCN(S(=O)(=O)c2cccc(F)c2)CC1 (stereo not given),-20%
CC1CCN(c2nc3c(c(=O)n(C)c(=O)n3C)n2Cc2ccccc2)CC1,-3%
CC1(C)CC(=O)C=C(C(=O)N2CCCC(C(=O)c3cccc(Cl)c3)C2)O1 (stereo not given),-5%
Cc1ccc(C(CC(=O)Nc2cc(C)cc(C)c2)N2Cc3ccccc3C2=O)cc1 (stereo not given),-6%
O=C(c1ccccc1F)N1CCCc2ccccc21,2%
O=C(NCc1ccco1)c1c[nH]c2ccc(S(=O)(=O)Nc3ccc(F)cc3F)cc2c1=O,-12%
CC(C)[n+]1ccn(C2=C([O-])c3ccccc3C(=O)/C2=N\S(=O)(=O)c2ccccc2)c1,8%
Cc1ccc(Cl)cc1N1CCN(Cc2nnc(-c3ccc4c(c3)OCO4)o2)CC1,-16%
C/C(=N\NC(=O)c1cccnc1)c1ccccc1,-22%
CN1CCN(c2nc3c(c(=O)[nH]c(=O)n3C)n2CCSc2nc3ccccc3s2)CC1,-17%
O[C@@H]1[C@@H]2c3cc4c(cc3CN3CCC(=C[C@@H]1O)[C@H]23)OCO4,0%
S=C(NCCN1CCCCC1)Nc1ccc(Br)cc1,-7%
CCNc1nc(NCC)nc(N(C)/N=C/c2ccco2)n1,0%
CC1CCN(Cc2c(C(=O)O)nnn2-c2nonc2N)CC1,-13%
O=C(Nc1ccccc1)c1ccsc1,-16%
CCCSc1ccc([C@@H]2[C@H]3C(=O)N(CC)C(=O)[C@H]3[C@]3(C(=O)OC)CCCCN23)cc1,-18%
Cn1nc(C(=O)NCc2ccccc2)c2c1-c1ccccc1SC2,8%
O=C(NNC(=S)Nc1ccc(Cl)c(Cl)c1)c1cccc([N+](=O)[O-])c1,-10%
COc1cc(Cl)c(C)cc1NC(=O)Cn1ncc2c([nH]c3ccccc32)c1=O,-7%
COc1ccc(C2C=C(c3ccc(Br)cc3)Nc3nc(N4C(=O)CCC4=O)nn32)cc1 (stereo not given),1%
COCCNC(=O)C(C)N(c1ccc(Oc2ccccc2)cc1)S(C)(=O)=O (stereo not given),5%
O=C(CCNS(=O)(=O)c1ccc(Br)cc1)NC1CCN(Cc2ccccc2)CC1,1%
COc1ccc(OC)c(C2=NO[C@@H]3C(=O)N(c4cc(Cl)ccc4OC)C(=O)[C@H]23)c1,4%
O=C(Nc1nnc(C2CC2)s1)C1Cc2ccccc2CN1S(=O)(=O)c1cccs1 (stereo not given),27%
CCCC(=O)Nc1ccc(NC(=O)C2CC2)cn1,-5%
Cc1ccccc1S(=O)(=O)c1cc2ccccc2nc1N,8%
O=C(COc1ccccc1F)Nc1ccc(OCc2cc(=O)n3ccccc3n2)cc1,16%
CCOC(=O)C1=C(C)N(C)C(C)=C(C(=O)OCC)C1c1cccnc1,-6%
CCOc1ccc2nc(SCCNS(=O)(=O)c3ccccc3)sc2c1,4%
COc1ccc(S(=O)(=O)N(C)C)cc1NC(=O)Cc1c[nH]c2ccccc12,3%
N#CC(c1ccc(Cl)cc1)c1ccc(Cl)nn1 (stereo not given),-1%
O=C(CCS(=O)(=O)c1ccc(Br)cc1)NCCC1=CCCCC1,-2%
CCOC(=O)C(=O)c1csc(NC(=O)CCSc2ccc(C)cc2)n1,-11%
Cc1sc(NC(=O)CCS(=O)(=O)c2ccccc2)c(C#N)c1C,89µM*
CC1CCCN(c2ccc(C(=O)Nc3cccnc3)cc2[N+](=O)[O-])C1 (stereo not given),-3%
O=c1c2ccccc2c2ccccc2c(=O)n1CC1CCCO1 (stereo not given),-1%
COCCNC(=S)NN=C1CCC(c2ccccc2)CC1 (stereo not given),4%
O=C(OCC(=O)c1ccc[nH]1)c1ccccc1,-3%
O=C(Cn1c(=O)oc2ccccc21)Nc1ccc2c(c1)OCCO2,25%
CCOC(=O)c1sc2nc(C)n(CC(=O)Nc3cccc(Cl)c3)c(=O)c2c1C,-7%
Cc1ccc(C2c3[nH]c4ccccc4c3CCN2C(=O)Nc2ccc(C)c(C)c2)cc1 (stereo not given),-11%
Cc1cccc(N2CCN(C(=O)CN3C(=O)NC(C)(C4CC4)C3=O)CC2)c1C (stereo not given),-5%
COc1cccc(CNC(=O)c2ccc(CS(=O)(=O)Cc3ccc(C)cc3)o2)c1,-10%
O=C(Oc1cccc2c(O)cccc12)c1ccco1,5%
O=C(Cc1ccc(NC(=O)C2CCCN(C(=O)C3CCCC3)C2)cc1)Nc1cccc(C(=O)N2CCCCC2)c1 (stereo not given),-25%
c1csc(-c2nc(N3CCN(Cc4ccc5c(c4)OCCO5)CC3)c3ccccc3n2)c1,0%
CN(c1ccccc1)S(=O)(=O)c1cccc(NC(=O)COC(=O)C2CCCCC2)c1,8%
Cn1cccc1-c1cc2n(n1)CCC(=O)N2CC(=O)Nc1ccc(F)cc1Cl,5%
COCCn1c(=O)c(-c2cccs2)nc2cnc(N3CCOCC3)nc21,-1%
O=C(CCn1cnc2ncccc2c1=O)N1CCN(c2cccc(Cl)c2)CC1,17%
# (further entries)
SMILES,VDR inhibitor
CCc1ccc(/C(C)=N/NC(=O)CNC(=O)/C=C/c2ccccc2OC)cc1,-10%
O=C(NCc1ccc(F)cc1)C(c1ccccc1)c1ccccc1,-5%
CCOCCn1c(CN(Cc2ccccc2)Cc2ccccc2)nc2c1c(=O)n(C)c(=O)n2C,11%
COc1ccc(CNC(=O)CN2C(=O)NC(c3ccccc3)(c3ccccc3)C2=O)cc1OC,-3%
Fc1ccc(C(c2ccc(F)cc2)N2CCN(C/C=C\c3ccccc3)CC2)cc1,10%
Cc1ccc(C)c(CSc2nnc([C@@H]3CCCN3)o2)c1,5%
O=C(CN1CCOCC1)N1CCc2ccccc2C(c2ccccc2)C1 (stereo not given),-4%
COc1ccc(S(=O)(=O)N(CC(=O)N2CCN(C)CC2)c2ccccc2)cc1OC,-18%
CNC(=O)c1sc(N2N=C3/C(=C\c4ccccc4)CCCC3C2c2ccccc2)nc1C (stereo not given),4%
O=C1CSC(=Nc2cccc(Cl)c2Cl)N1Cc1cccnc1,3%
COC(=O)[C@@]1(Cc2ccc(OC)cc2)[C@H]2c3cc(C(=O)N(C)C)n(Cc4c(CO)[nH]cc(C)c4=O)c3C[C@H]2CN1C(=O)c1ccccc1,-5%
O=C(CN1C(=O)NC2(CCCCCCC2)C1=O)NCc1ccc(F)cc1,6%
Cc1ccc(P(=O)(CC(=O)O)c2ccc(C)cc2)cc1,-1%
COCCCNC(=O)c1ccccc1N(Cc1ccccc1)S(=O)(=O)c1ccc(OC)cc1,10%
